Source: PubChem BioAssay
NPYLR7 agonist – activates Aedes aegypti NPYLR7 receptor; HEK293T NPYLR7/Galpha15, GCaMP6s calcium fluorescence; activation, % at 10 µM; 270,000 tested, 0.15% active; in the data active = activation above about 40%;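 also: 0% = vehicle and 100% = reference agonist at the receptor; some compounds past the cut are filed as inactive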
NPYLR7 agonist max-min – further read-out of NPYLR7 agonist, marked with its call; activation, %; measured here: Max-Min RFU normalised activation; some inactives read as strong as hits;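 span of the calcium signal over five minutes; 0% = vehicle and 100% = native peptide agonist; compound fluorescence can raise it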
Starred values were filed as active, the others as inactive; & = joins results of further samples. Only part of the results is shown; rates above refer to the full screens.

Below each SMILES – NPYLR7 agonist | NPYLR7 agonist max-min
OCC1N(CCc2ccccc2)C2CCC1(O)CC2 (stereo not drawn)
    19 | 24
Cc1ccc(-n2c(=O)[nH]c3c(C(=O)Nc4ccccc4)cn(C)c3c2=O)cc1
    3 | 3
CCN(CC)C(=O)CN(C#N)c1nc(N(C)C)nc(N(C)C)n1
    9 | 13
COc1ccc(Cc2nc3ccc(C(=O)NCc4cc(F)ccc4F)cc3o2)cc1OC
    5 | 4
COc1ccc2c(-c3c(-c4ccccc4)ncn3Cc3ncn[nH]3)cn(C)c2c1
    11 | 0
O=C(NCC1CCCN(Cc2cccnc2)C1)c1cccc2ccccc12 (stereo not drawn)
    10&-6 | 13&-9
CC1CCCCN1c1ccc(S(=O)(=O)N2CCCCC2)cn1 (stereo not drawn)
    4 | 2
O=C(c1cc(-c2ccccc2)nn1-c1ccc(F)cc1)N1CCc2ccccc2C1
    8 | 16
COc1ccc(-c2cc(C(F)(F)F)n3ncc(C(=O)Nc4cccnc4Cl)c3n2)cc1
    7 | 6
CC12CCC(C(=O)Nc3ncc(Cl)cc3Cl)(OC1=O)C2(C)C (stereo not drawn)
    -3 | -3
CC1c2cccn2CCN1C(=O)c1cn2ccsc2n1 (stereo not drawn)
    4 | 2
CN(Cc1ccsc1)C(=O)Cn1c(=O)[nH]c2ccccc2c1=O
    0 | -1
CN1OC(C)(CC(=O)NCc2nccs2)N=C1c1cccc2ccccc12 (stereo not drawn)
    7 | 4
CCN1CCCC(NC(=O)CCc2ccc(Cl)s2)C1 (stereo not drawn)
    2 | 2
Cn1ccnc1SCCNC(=O)C1CCC(=O)N(CCc2ccccn2)C1 (stereo not drawn)
    -1 | -3
CC1=NN(C(=O)c2ccc(Cl)cc2)C(O)(c2ccccc2)C1 (stereo not drawn)
    -6 | -9
O=C(N[C@@H]1CCCCC1NC(=O)C1CCN(C(=O)c2ccc(Cl)cc2Cl)CC1)c1ccccc1 (stereo partly drawn)
    -11 | -10
O=C(COc1ccc(Cl)cc1Cl)N=Nc1c(O)[nH]c2ccccc12
    -7&-1 | -12&10
Cc1ccc2c(C)cc(Cl)nc2c1C
    20 | 27
CCCN(Cc1cccc(Cl)c1)C(=O)CCSC
    -5 | -5
Cc1nnc(NC(=O)CSc2nc(=O)n(N3CCN(C)CC3)c3c2CCCC3)s1
    -3 | -12
CCCNC(=O)C(NC(=O)CC(C)C)C1CCN(C(=O)Nc2cccc(Cl)c2)CC1 (stereo not drawn)
    10 | 6
CCCN(C(=O)C1CC1c1cnn(C)c1)c1cccc2ccccc12 (stereo not drawn)
    -3 | -3
c1ccc2c(c1)CCN(C1CCCN(C3CCN(c4ccc5c(c4)OCO5)CC3)C1)C2 (stereo not drawn)
    10 | 7
O=C(CSc1ccc2nnc(-c3ccccc3)n2n1)NC1CCCCC1
    0 | 34
CCc1ccccc1NC(=O)N(Cc1ccc(OC)c(OS(C)(=O)=O)c1)C(C)C
    -11 | -17
Cc1nnc2c(C(=O)NCCc3cccc(F)c3)cccn12
    -5 | -11
CSCC(=O)N[C@H]1C[C@@H](C(=O)O)N(C(=O)COCC(=O)N2C[C@@H](NC(=O)c3cccn3C)C[C@H]2C(=O)O)C1
    -6 | -18
CCC(=O)NCCc1nc2ccccc2n1Cc1cc(C)ccc1C
    -7 | -9
Cc1cc(N2C(=O)c3oc4ccccc4c(=O)c3C2c2ccccn2)no1 (stereo not drawn)
    8 | 5

Next part; it opens with the 2 that closed the last part.
Below each SMILES – NPYLR7 agonist | NPYLR7 agonist max-min
CCC(=O)NCCc1nc2ccccc2n1Cc1cc(C)ccc1C
    -7 | -9
Cc1cc(N2C(=O)c3oc4ccccc4c(=O)c3C2c2ccccn2)no1 (stereo not drawn)
    8 | 5
CN(C)CCNC(=O)[C@@]1(OCc2ccccc2F)CC(OCc2cccc(OC(F)(F)F)c2)[C@@H]2OC(C)(C)O[C@@H]2C1 (stereo partly drawn)
    8 | 15
O=C(COc1coc(CN2CCN(Cc3ccccc3)CC2)cc1=O)NC1CCCC1
    3 | 2
CCOC(=O)c1cc(-c2ccc(CC)cc2)n(-c2ccc(C(=O)NC(C)c3ccc(Br)cc3)cc2)n1 (stereo not drawn)
    1 | -4
COC(=O)c1c(C)[nH]c(C(=O)C(C)OC(=O)c2ccc(OC)nc2)c1C (stereo not drawn)
    11 | 3
Nc1ccc(N2C(=O)c3ccccc3C2=O)c(Cl)c1
    2 | 5
O=C(Nc1ncnc2sccc12)c1ccc(S(=O)(=O)N2CCOCC2)cc1
    -16 | -14
O=C(O)C1C2C=CC3(CN(CCCN4CCOCC4)C(=O)C13)O2 (stereo not drawn)
    12 | 4
CCCCC(=O)N(C)c1c(C)nc2ccc(C(=O)N3CCN(C(=O)c4ccco4)CC3)cn12
    -4 | -12
COC(=O)C1=C(O)/C(=C\c2ccc(OC)c(OC)c2OC)SC1=Nc1ccccc1F
    -2 | -2
COCCNS(=O)(=O)c1ccc(OC)c(N2CCN(C(=O)c3ccccc3OC(F)(F)F)CC2)c1
    12 | 11
Clc1ccc2nc(CSc3nc4ccccc4[nH]3)c(Cl)n2c1
    -8 | -11
O=C(CN(C(=O)c1ccco1)C1CC1)N(CCc1c[nH]c2ccccc12)Cc1ccc(Cl)c(Cl)c1
    31 | 29
O=C(C(Br)=CNc1cc(Cl)cc(Cl)c1)C(F)(F)F
    2 | 1
CCOCCCN(CC(=O)N1CCc2sccc2C1c1ccccc1)S(=O)(=O)c1ccc(Cl)cc1 (stereo not drawn)
    11 | 6
CN(Cc1ccccc1Br)C(=O)c1ccc(O)c(Cl)c1
    2&-15 | 0&-19
Cc1cc(C(=O)N(C)CC2CCCN(CCc3ccccc3F)C2)no1 (stereo not drawn)
    3 | 0
COc1ccccc1-c1cc(C(=O)NC(C)c2ccccc2)n2nc(C(C)(C)C)cc2n1 (stereo not drawn)
    4 | 6
CCOC(=O)C(c1ccc(OC)c(OC)c1)C1C=CC(NC(=O)c2ccc(F)cc2F)C1 (stereo not drawn)
    -2 | -5
NC(=O)NC(CC(=O)N1CCc2ccccc21)c1ccccc1F (stereo not drawn)
    8 | 5
CCc1ccccc1-n1ccc2nc(N3CCCCC3)ncc2c1=O
    -10 | -18
CCC(=O)Nc1sc2c(c1C(=O)Nc1ccccc1)CCCC2
    -12 | -17
Cn1c2c(c3ccccc31)C[C@H]1C[C@@H]2[C@@H](O)CN1Cc1ccccn1
    24 | 35
CC(C)Nc1nc(NC(C)C)nc(N(C)C(N)=O)n1
    -5 | -5
Cc1cc(NC(=O)C2(C)CCN2C(=O)c2cc(C)n(C)n2)no1 (stereo not drawn)
    -2 | -2
COCC(C)NC(=O)c1c(C)oc(C)c1C (stereo not drawn)
    9 | 3
O=C1NCCN(CC(c2ccccc2)c2ccccc2)C1CC(=O)N1CCC(CO)CC1 (stereo not drawn)
    3 | 0
COC(=O)c1cc(-c2cccc(NC(C)=O)c2)c[nH]1
    5 | 9
O=C(NCCn1ncc2c(N3CCOCC3)ncnc21)c1cc2ccccc2o1
    1 | 2
CCCN=C(NC(=O)c1ccc(OC)cc1)OCC
    -4 | -3
Cc1nonc1NS(=O)(=O)c1ccccc1
    3 | 1
Cc1nc(-n2nc(C3CC3)cc2NC(=O)c2ccc(F)cc2)[nH]c(=O)c1C
    12 | 10
Cc1csc(NC(=O)CSc2c(C)cnc3c2c(=O)n(C)c(=O)n3C)n1
    -3 | 2
CN(C)c1ccc(/C=C2\N=C(c3ccccc3Cl)OC2=O)cc1
    -2 | -6
CCn1nc(C(C)(C)C)cc1C(=O)N1CCc2c(cnn2-c2ccc(S(C)(=O)=O)cc2)C1
    0 | 15
CCn1c(=O)c(C(=O)NCCOC)nn(-c2ccc(Cl)cc2)c1=O
    3 | 16
COc1nn(C)cc1-c1nnc(SCC(C)=O)n1C
    4 | 5
Cn1c(N)c(N2CCCCC2)c(=O)[nH]c1=O
    -1 | 2
COc1ccc(C(=O)NC(C(=O)NC2CC2)C2CCN(C(=O)c3cccc(OC)c3)CC2)cc1 (stereo not drawn)
    -14 | -11
CC(C)(C)NS(=O)(=O)c1cnc(Cl)c(Cl)c1
    4 | 9
CCOC(=O)c1cc(-c2cccc(NC(=O)COC)c2)n(-c2ccc(OC)cc2)n1
    23 | 10
CC(C)c1cc(NCCCN2CCOCC2)n2c(nc3ccccc32)c1C#N
    -1 | -5
CC(C)(C)CC(=O)NCCCCCCNC(=O)CC(C)(C)C
    3 | 5
O=C(NN1C(=O)NC2(CCCCC2)C1=O)c1cc2c(s1)CCCCC2
    11 | 8
C=CCNCc1csc(COc2ccccc2C(C)C)n1
    29 | 37
O=C(O)CN1C(=O)/C(=C\c2ccc(-c3cc([N+](=O)[O-])ccc3Cl)o2)SC1=S
    0 | -5
Cc1cccc(N2C(=O)C(c3c(-c4ccccc4)[nH]n(C)c3=O)=C(N3CCCC3)C2=O)c1
    2 | 11
O=C1NN(C(=O)COc2ccc(Cl)cc2Cl)C(c2ccc(Br)cc2)=CS1
    0 | 0
CC(c1nnc(SCC(=O)O)n1-c1cccnc1)n1cccn1 (stereo not drawn)
    4 | 1
CC(C)(C)CC(C)(C)Nc1c(-c2ccc(OC(=O)c3cccc4ccccc34)cc2)nc2ccc(Br)cn12
    1 | 6
COc1ccc(-c2cc(-c3ccccc3)nc(SCC(N)=O)c2C#N)cc1
    -2&-7 | -10&-7
C=CCn1c(SCC(=O)Nc2cc(OC)cc(OC)c2)nc2scc(-c3ccco3)c2c1=O
    -5 | -10
O=C(Cc1ccsc1)NNC(=O)CC12CC3CC(CC(C3)C1)C2
    5 | 2
C=c1cc(C)n(CC(=O)Nc2ccc(OC)cc2OC)c(=O)c1=C1N=C(c2ccccc2)NO1
    -1 | -8
O=C(CSc1ncnc2sccc12)c1ccc(CC(=O)N2CCOCC2)s1
    12 | 12
Nc1cc(S(=O)(=O)N2CCCC2)ccc1OCC(F)(F)F
    3 | 18
CCOc1ccc(C(=O)NCCNc2cc(N3CCCC3)nc(C)n2)cc1
    1 | 0
CCc1c(C(=O)NCC(F)(F)F)cnn1-c1ccc(C)cc1
    4 | 4
CC(C)[N+]1(C)[C@@H]2CC[C@@H]1CC(OC(=O)C(CO)c1ccccc1)C2 (stereo partly drawn)
    -3 | -10
CCc1cc(N2CCN(c3ccccc3Cl)CC2)nc(SCc2cccc(C(=O)NC3CC3)c2)n1
    11 | 10
O=c1oc2ccccc2cc1-c1nnc(-c2cccc3ccccc23)o1
    -4 | -6

Part of the list above, with each value named.
CCn1nc(C(C)(C)C)cc1C(=O)N1CCc2c(cnn2-c2ccc(S(C)(=O)=O)cc2)C1
  NPYLR7 agonist = 0
  NPYLR7 agonist max-min = 15

CCOC(=O)c1cc(-c2cccc(NC(=O)COC)c2)n(-c2ccc(OC)cc2)n1
  NPYLR7 agonist = 23
  NPYLR7 agonist max-min = 10

Cc1cccc(N2C(=O)C(c3c(-c4ccccc4)[nH]n(C)c3=O)=C(N3CCCC3)C2=O)c1
  NPYLR7 agonist = 2
  NPYLR7 agonist max-min = 11

CC(C)(C)NS(=O)(=O)c1cnc(Cl)c(Cl)c1
  NPYLR7 agonist = 4
  NPYLR7 agonist max-min = 9

Next section.
structure | NPYLR7 agonist | NPYLR7 agonist max-min
O=C(O)c1nc(-c2ccc(F)cc2)n2c1CCCCC2 | -25 | -22
COCCNC(=O)c1ccc2c(c1)N(C)C(CC(=O)N1CC=CCC1)CO2 (stereo not drawn) | 4 | 0
Brc1cncc(N2CCCC2)c1 | 1 | -1
CSCCC(NC(=O)c1ccccc1Cl)C(=O)NNC(=O)c1cc(C)oc1C (stereo not drawn) | 8 | 11
CCC(=O)OC1(C(=O)CCl)[C@@H](C)C[C@H]2[C@@H]3CCC4=CC(=O)C=C[C@]4(C)[C@@]3(F)[C@@H](O)C[C@@]21C (stereo partly drawn) | -7 | -12
CC(C)c1cccc(C(C)C)c1NC(=O)NC(Cc1ccccc1)C(=O)Nc1nnc(-c2ccc3c(c2)OCO3)s1 (stereo not drawn) | -10 | -13
O=C(C1CCCN(S(=O)(=O)CCn2cnc3ccccc32)C1)N1CCOCC1 (stereo not drawn) | 2 | 2
CC(C)SC(NC(=O)OCc1ccccc1)C(=O)N1CCC(O)(Cc2ccccc2)CC1 (stereo not drawn) | -6 | -16
CC(C)c1nnc(CN(Cc2ccc(C(F)(F)F)cc2)C2CC2)o1 | 5 | 5
CCCSc1ncc(CN2CCN(c3nccc4occc34)CC2)cn1 | 8 | -6
CCn1nccc1C(=O)NCCc1nc(C)cc(C(F)(F)F)n1 | -9 | -12
CC(NC(=O)COc1ccc2c3c(c(=O)oc2c1)CCC3)c1cccs1 (stereo not drawn) | -4 | 17
CCOC(=O)CC(=O)N1CCN(c2nccc(-c3cccc(C(F)(F)F)c3)n2)CC1 | 5 | 2
O=C(NCc1cccnc1)C(C1CCCC1)N1CCN(C(=O)c2ccc(Cl)cc2Cl)CC1 (stereo not drawn) | 3 | 10
COc1ccc(CCNC(=O)NCc2nnnn2-c2ccc(C)c(C)c2)cc1 | 4 | 0
CCc1nnc(CN(CC)C(=O)CCN2CCCCO2)o1 | -2 | -3
COCCOc1cccc(NC(=O)N2CCCC(C(=O)N(C)C)C2)c1 (stereo not drawn) | 3 | 3
O=C(NCC1CCCO1)c1cnn(-c2ccc([N+](=O)[O-])cc2)c1-c1ccccc1 (stereo not drawn) | 24 | 20
O=C(Cc1noc(C2CC2c2ccc(Cl)cc2)n1)NC1CCCC1 (stereo not drawn) | 8&4 | 5&0
CCCCCCCCCCCCCC(=O)Nc1ccc(-n2nc(OCC)nc2-c2ccc3c(c2)OCO3)cc1 | -10 | -2
Cc1ccccc1OCC(O)CNc1cccc(-n2nc(OC(C)C)nc2-c2cccc(F)c2)c1 (stereo not drawn) | 12 | 16
COc1ccccc1N1CCN(C(=O)CC2CSc3ncc(C)c(=O)n32)CC1 (stereo not drawn) | -8 | -10

Of the compounds above, these contain a nitro group on carbon.
structure | NPYLR7 agonist | NPYLR7 agonist max-min
O=C(O)CN1C(=O)/C(=C\c2ccc(-c3cc([N+](=O)[O-])ccc3Cl)o2)SC1=S | 0 | -5
O=C(NCC1CCCO1)c1cnn(-c2ccc([N+](=O)[O-])cc2)c1-c1ccccc1 (stereo not drawn) | 24 | 20
